Assay outcomes: PubChem BioAssay, ICCB-Longwood Screening Facility, Harvard Medical School
Vaccinia pol inh: vaccinia E9 polymerase processive synthesis inhibition. 0.94% of 46,000 active. normalized absorbance, % (test concentration not listed). in vitro processive DNA synthesis, absorbance read-out; hits give low values; some inactives read as strong as hits;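 active means replicate mean up to 90% and picked by the depositor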;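 further: 100% = median of the test wells of a plate; 100 nL library stock went into each well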
An asterisk follows results filed as active.

O=C(CC(NCCc1ccc(Cl)cc1)C(=O)O)c1ccc(Br)cc1 (centres undefined) was read as Vaccinia pol inh 96.
For COc1ccc(CSc2ncn[nH]2)cc1 the results were Vaccinia pol inh 104.
For O=C(Nc1ccc(S(=O)(=O)N2CCOCC2)cc1)c1ccccc1 the results were Vaccinia pol inh 94.
CC1CCCCN1C(=S)Nc1ccc(S(=O)(=O)N2CCCCC2)cc1 (centres undefined) was read as Vaccinia pol inh 106.
Cc1onc(-c2c(Cl)cccc2Cl)c1C(=O)N[C@@H]1C(=O)N2[C@@H]1SC(C)(C)[C@@H]2C(=O)O was read as Vaccinia pol inh 99.
C=CCn1c(=S)sc2c(SCC(=O)N3CCc4ccccc43)ncnc21 was read as Vaccinia pol inh 100.
`CCCNC(=O)c1[nH]c2ccccc2c1Sc1ccc(Cl)cc1` gave Vaccinia pol inh 105.
Screening CC(C)(C)NC(=O)CSc1nsc(SCC(=O)NC(C)(C)C)c1C#N returned Vaccinia pol inh 100.
NNc1nc2c(Cl)cc(Cl)cc2s1 was read as Vaccinia pol inh 104.
Screening NC(=O)CC1(Nc2ccccc2)CCN(Cc2ccccc2)CC1 returned Vaccinia pol inh 94.
COc1ccccc1CCNCc1ccccc1C(F)(F)F was read as Vaccinia pol inh 100.
Screening O=C1c2ccccc2C(=O)C1c1ccc2ccccc2c1 returned Vaccinia pol inh 92.
For O=C(Oc1ccc(Cl)c2cccnc12)c1ccc(F)cc1 the results were Vaccinia pol inh 100.
For O=C(CC(C(=O)O)N1CCCCC1)Nc1ccccc1 (centres undefined) the results were Vaccinia pol inh 98.
CCCCc1ccc(NC(=O)Cn2c(C(C)O)nc3ccccc32)cc1 (centres undefined) was read as Vaccinia pol inh 97.
CSc1nc2ccccc2c(=O)n1C was read as Vaccinia pol inh 103.
`O=C(O)c1ccn(COc2ccccc2)n1` gave Vaccinia pol inh 101.
Screening CCc1ccccc1NC(=S)N(CCCN1CCOCC1)Cc1ccccn1 returned Vaccinia pol inh 97.
For O=C(CSc1nc(Nc2ccc3c(c2)OCO3)c2ccccc2n1)c1ccc(Cl)cc1 the results were Vaccinia pol inh 101.
O=C1C2=C(Nc3ccccc3S(=O)(=O)C2c2ccc(Cl)cc2)c2ccccc21 (centres undefined) was read as Vaccinia pol inh 83.

Grouped by structure: those above with a Cl atom.
O=C(CC(NCCc1ccc(Cl)cc1)C(=O)O)c1ccc(Br)cc1 (centres undefined) was read as Vaccinia pol inh 96.
Cc1onc(-c2c(Cl)cccc2Cl)c1C(=O)N[C@@H]1C(=O)N2[C@@H]1SC(C)(C)[C@@H]2C(=O)O was read as Vaccinia pol inh 99.
`CCCNC(=O)c1[nH]c2ccccc2c1Sc1ccc(Cl)cc1` gave Vaccinia pol inh 105.
NNc1nc2c(Cl)cc(Cl)cc2s1 was read as Vaccinia pol inh 104.
For O=C(Oc1ccc(Cl)c2cccnc12)c1ccc(F)cc1 the results were Vaccinia pol inh 100.
For O=C(CSc1nc(Nc2ccc3c(c2)OCO3)c2ccccc2n1)c1ccc(Cl)cc1 the results were Vaccinia pol inh 101.
O=C1C2=C(Nc3ccccc3S(=O)(=O)C2c2ccc(Cl)cc2)c2ccccc21 (centres undefined) was read as Vaccinia pol inh 83.

Returning to the listing, repeating the two entries before the break.
For O=C(CSc1nc(Nc2ccc3c(c2)OCO3)c2ccccc2n1)c1ccc(Cl)cc1 the results were Vaccinia pol inh 101.
O=C1C2=C(Nc3ccccc3S(=O)(=O)C2c2ccc(Cl)cc2)c2ccccc21 (centres undefined) was read as Vaccinia pol inh 83.
Cc1nnc(NC(=O)c2ccccc2C(F)(F)F)s1 was read as Vaccinia pol inh 95.
`CCc1ccc(C(=O)c2cncc(Br)c2)cc1` gave Vaccinia pol inh 100.
Cc1ccc(Oc2ncccc2NC(=O)Nc2ccccc2)c2c1CCC2 was read as Vaccinia pol inh 94.
For CC(Sc1nc(-c2ccccc2)cc(C(F)(F)F)n1)C(=O)NCc1ccccc1 (centres undefined) the results were Vaccinia pol inh 94.
Screening CN(C)CCCNc1ncnc2c1c(-c1ccccc1)cn2-c1ccccc1 returned Vaccinia pol inh 93.
For O=C(O)C1=CC2c3ccccc3C1c1ccccc12 the results were Vaccinia pol inh 93.
`COc1ccc2c(CCl)cc(=O)oc2c1` gave Vaccinia pol inh 102.
For CC(COc1ccc(C(C)C)cc1)NC(=O)c1cccs1 (centres undefined) the results were Vaccinia pol inh 100.
For CCC(=O)Nc1nc2ccc(Cl)cc2s1 the results were Vaccinia pol inh 96.
`Oc1ccccc1N=Cc1sc2ccccc2c1Cl` gave Vaccinia pol inh 102.
Screening CN1C(=O)C(Cc2ccccc2)(c2ccccc2)c2ccccc21 (centres undefined) returned Vaccinia pol inh 105.
`Cc1ccc(NC(=O)Nc2sc(=S)n(C)c2C)cc1` gave Vaccinia pol inh 100.
`COc1cccc(NC(=O)CCCC(=O)Nc2cccc(OC)c2)c1` gave Vaccinia pol inh 100.
`CCN(CC)c1cc(C(F)(F)F)nc(-c2ccccn2)n1` gave Vaccinia pol inh 101.
Screening N#CCCn1c2c(ccc1=O)CCCC2 returned Vaccinia pol inh 109.
For N#Cc1ccc(Cl)cc1N=Cc1ccco1 the results were Vaccinia pol inh 95.
O=c1c2sccc2nc(SCc2ccccc2)n1CCc1ccccc1 was read as Vaccinia pol inh 102.
For CSc1ccc(-c2cccs2)nn1 the results were Vaccinia pol inh 102.
CCc1ccc2c(c1)=C(c1[nH]c(=S)[nH]c1O)C(=O)N=2 was read as Vaccinia pol inh 100.
`Cc1cc(C)nc(/N=C(/N)NO)n1` gave Vaccinia pol inh 100.
`Cc1cc(C)c2c(n1)sc1c(=O)n(/N=C/c3ccccc3)cnc12` gave Vaccinia pol inh 98.
`COC(OC)c1nc(SCC(=O)Nc2ccc(C(C)C)cc2)ncc1C(=O)O` gave Vaccinia pol inh 96.
`O=S(=O)(c1ccc(OC(F)(F)F)cc1)N1CCCC(c2ccccc2)C1` (centres undefined) gave Vaccinia pol inh 115.
Screening Cc1onc(C(=O)N(C)C)c1-c1ccnc(=S)[nH]1 returned Vaccinia pol inh 88*.
CCOc1ccccc1N1C(=O)/C(=C\c2cccs2)SC1=S was read as Vaccinia pol inh 116.
`Cc1cccc(NS(=O)(=O)c2ccc3c(c2)OCCO3)c1` gave Vaccinia pol inh 99.
CC(=O)OCC1OC(n2ccc(=O)[nH]c2=O)C(OC(C)=O)C1OC(C)=O (centres undefined) was read as Vaccinia pol inh 100.
For Cc1c(Cl)cccc1NC(=O)c1ccco1 the results were Vaccinia pol inh 105.
Screening O=c1c(O)coc(CO)c1C(Nc1ccccn1)c1ccccc1O (centres undefined) returned Vaccinia pol inh 102.
`C[C@]1(C(=O)O)CCC[C@]2(C)c3cc(O)ccc3CC[C@@H]12` gave Vaccinia pol inh 94.
FC(F)(F)c1cc(C#CCN2CCCCC2)cc(C(F)(F)F)c1 was read as Vaccinia pol inh 105.
`COc1ccc(CCNc2nc3c(c(C(F)(F)F)n2)CC(C)CC3)cc1OC` (centres undefined) gave Vaccinia pol inh 104.
`N#Cc1c(SCC(N)=O)nsc1SCc1ccc(Cl)cc1` gave Vaccinia pol inh 100.
CC(C)(C)c1ccc(Oc2ccc(NC(=O)c3ccccc3)cn2)cc1 was read as Vaccinia pol inh 104.
For O=C(Oc1ccccc1)N1CCCC1 the results were Vaccinia pol inh 104.
`O=C1Nc2ccccc2C(O)(C(=O)NCc2ccc3c(c2)OCO3)N1c1c(F)cccc1F` (centres undefined) gave Vaccinia pol inh 100.
Screening O=C1Nc2ccccc2/C1=N\N1CCN(Cc2ccc(Cl)cc2)CC1 returned Vaccinia pol inh 100.
Screening O=C(Nc1csc2ccccc12)N1CCSCC1 returned Vaccinia pol inh 109.
O=C(O)c1ccc(S(=O)(=O)N2CCCC2)cc1 was read as Vaccinia pol inh 100.
Cc1[nH]c2ccccc2c1C1=CCN(S(=O)(=O)Cc2ccccc2)CC1 was read as Vaccinia pol inh 93.
`CN(CC(=O)Nc1nc2ccc(Cl)cc2s1)S(=O)(=O)c1ccc2[nH]c(=O)ccc2c1` gave Vaccinia pol inh 92.
For CCc1ccc(NC(=O)CSc2ncc(S(=O)(=O)c3ccc(C(C)C)cc3)c(N)n2)cc1 the results were Vaccinia pol inh 98.
For CC(C)(C)C(N)Cn1ccnc1 (centres undefined) the results were Vaccinia pol inh 103.
For Cc1cccc(-n2nc3c(c2NC(=O)c2c(F)cccc2Cl)CS(=O)(=O)C3)c1C the results were Vaccinia pol inh 101.
Screening Fc1ccc(SCSc2ccccc2)cc1 returned Vaccinia pol inh 85.
`O=C(OCC1CCCO1)c1ccccc1Br` (centres undefined) gave Vaccinia pol inh 93.
For O=C(NCCc1ccccc1)c1ccc(Cl)cc1 the results were Vaccinia pol inh 100.
Screening CCOC(=O)c1nc2ccccc2c(=O)n1-c1ccc(C)cc1C returned Vaccinia pol inh 104.
Screening CS(=O)(=O)C1(S(C)(=O)=O)CCCCC1 returned Vaccinia pol inh 100.
CC1CCN(c2nnc(NC(=O)c3cc(-c4ccc(Br)cc4)on3)s2)CC1 was read as Vaccinia pol inh 104.
Brc1ccccc1OCC1CCCN2CCCCC12 (centres undefined) was read as Vaccinia pol inh 99.
`CCOC(=O)CCN1C(=O)/C(=C/c2ccccc2OC)SC1=S` gave Vaccinia pol inh 99.
For COc1cc(C(=O)OC2CC3CCC(C2)N3)ccc1O (centres undefined) the results were Vaccinia pol inh 100.
`O=C(c1ccc(S(=O)(=O)N2CCCCC2)cc1)N1CCN(c2cccc(Cl)c2)CC1` gave Vaccinia pol inh 103.
Screening CS(=O)(=O)N1CCCC(C(=O)N2CCCCC2)C1 (centres undefined) returned Vaccinia pol inh 104.
c1ccc(-c2cc(CSc3nc4ccccc4[nH]3)on2)cc1 was read as Vaccinia pol inh 87.
Screening O=C1CCCC(=O)C1Sc1ccc(Cl)cc1 returned Vaccinia pol inh 109.
CCOC(=O)C1C2c3ccccc3O[C@]1(C)N=c1s/c(=C/c3ccc(OC)cc3)c(=O)n12 (some centres undefined) was read as Vaccinia pol inh 99.
`Cc1ccc(-c2nnc(OCc3cccnc3)c3ccccc23)cc1` gave Vaccinia pol inh 100.
Screening COc1cccc(Cn2c(SCc3ccc(C(=O)NC4CCCC4)cc3)nc3ccncc32)c1 returned Vaccinia pol inh 84.
For O=C(Nc1ccccc1)Nc1ccc2c(c1)OCO2 the results were Vaccinia pol inh 100.
`C=CCn1c(SCC(=O)NCCc2ccccc2)nc2sc3c(c2c1=O)CCCC3` gave Vaccinia pol inh 100.
COc1cccc(C(=O)Nc2ccc3nc(SC)sc3c2)c1 was read as Vaccinia pol inh 97.
For CCCCC(CC)CNc1nc(=S)[nH]c2ccccc12 (centres undefined) the results were Vaccinia pol inh 100.
For CCCCC1(Cc2ccccc2)C(=O)Nc2ccccc2C1=O (centres undefined) the results were Vaccinia pol inh 89.
`O=C1CCCN1Cc1cc(Cl)c2cccnc2c1O` gave Vaccinia pol inh 85.
For CC(C)CC(C(=O)O)N1C(=O)c2ccccc2C1=O (centres undefined) the results were Vaccinia pol inh 99.
For CCOC(=O)c1c(-c2ccc(OC)cc2)csc1NC(=O)CSc1nnc2ccccn12 the results were Vaccinia pol inh 100.
For CN(C)C(=O)C(CCN1CCC(O)(c2ccccc2)CC1)(c1ccccc1)c1ccccc1 the results were Vaccinia pol inh 96.
Screening Cc1ccc2c(c1)c1c(n2CC(O)CNCc2ccccc2)CCCC1 (centres undefined) returned Vaccinia pol inh 103.
For COc1ccc2c(c1)OC(O)(C(F)(F)F)CC2=O (centres undefined) the results were Vaccinia pol inh 97.
`O=C(COc1ccccc1O)N1CCCCC1` gave Vaccinia pol inh 90.
`COC(=O)[C@@]1(O)CC2OC1(C)n1c3ccccc3c3c4c(c5c6ccccc6n2c5c31)C(=O)NC4` (some centres undefined) gave Vaccinia pol inh 98.
Screening CC1(C)CN(c2ccc(I)cc2)C1=O returned Vaccinia pol inh 87.
For O=C(OCc1ccc(Cl)cc1Cl)C1CCC1 the results were Vaccinia pol inh 97.
For COc1ccc(Cl)cc1NC1=NCC(C)S1 (centres undefined) the results were Vaccinia pol inh 100.
For CN(C(=O)c1ccc(COc2ccccc2Cl)o1)c1ccccc1 the results were Vaccinia pol inh 101.
For CCOC(=O)Nc1cccc(O)c1 the results were Vaccinia pol inh 99.
Screening Cc1ccc(CN2COc3c(Cl)cc4c(C)c(C)c(=O)oc4c3C2)cc1 returned Vaccinia pol inh 69*.
Nc1nccc(-c2nn(-c3ccc(Cl)cc3)ccc2=O)n1 was read as Vaccinia pol inh 96.

3 compounds from above, ordered by count of non-hydrogen atoms, rising:
For CCOC(=O)Nc1cccc(O)c1 the results were Vaccinia pol inh 99.
For COc1ccc(Cl)cc1NC1=NCC(C)S1 (centres undefined) the results were Vaccinia pol inh 100.
`O=C(COc1ccccc1O)N1CCCCC1` gave Vaccinia pol inh 90.

Following part:
Screening COC(=O)C1=C(NC(=O)c2cccc(Cl)c2)CCS1 returned Vaccinia pol inh 99.
For Cc1nnc(SCc2cn3cc(Br)ccc3n2)n1C the results were Vaccinia pol inh 98.
Screening COc1cccc(-c2cc(C(=O)NC3CCCC3)no2)c1 returned Vaccinia pol inh 100.
`N#CC1(N2CCCCC2)CCCCC1` gave Vaccinia pol inh 105.
`O=C(NCCc1ccccc1)c1ccc2c(c1)NC(=O)C1CCCN21` (centres undefined) gave Vaccinia pol inh 105.
`COc1ccc2[nH]c3c(=O)n(Cc4ccc(C(=O)NCCc5ccc(C)cc5)cc4)c(=S)[nH]c3c2c1` gave Vaccinia pol inh 99.
`CCOc1ccc(C(=O)CSc2nnc(CC)n2N)cc1` gave Vaccinia pol inh 97.
Screening Cc1c(C)n(C(=O)CSc2nc3ccccc3s2)c2ccccc12 returned Vaccinia pol inh 100.
Screening C=C(C)Cn1c(=S)[nH]c2ccccc2c1=O returned Vaccinia pol inh 100.
Screening O=C(CSc1nnc(-c2ccco2)o1)N1CCCc2ccccc21 returned Vaccinia pol inh 104.

Only part of the results is shown. The share of hits here may be higher or lower than overall.
